# HSV replic up – enhancers of HSV replication in host cells, fold increase, host cell viability; AID 1956, 2009; 0.005% of 220,000 active; HSV replication augmentation in cells; maximum fold increase;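 active = peak rise of 1.5-fold or more in the series; tested in PC3 cells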;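 note: first round at 10 µM; read as green reporter fluorescence; hits show the peak of a series up to 25 µM; 1 = signal of infected wells without compound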
# GALR2 ag – GALR2 receptor agonists, primary screen, cell-based; GALR2-expressing cells, agonist activation read-out; activation, %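 (tested at 5 µM)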; 0.48% of 140,000 active;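 active = above mean plus 3 SD of all compounds, about 5% in these data, not always enough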;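 note: 0% = vehicle buffer wells and 100% = reference agonist at full effect; tested in CHO reporter cells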
# Target sequence (O43603 whole entry, looked up): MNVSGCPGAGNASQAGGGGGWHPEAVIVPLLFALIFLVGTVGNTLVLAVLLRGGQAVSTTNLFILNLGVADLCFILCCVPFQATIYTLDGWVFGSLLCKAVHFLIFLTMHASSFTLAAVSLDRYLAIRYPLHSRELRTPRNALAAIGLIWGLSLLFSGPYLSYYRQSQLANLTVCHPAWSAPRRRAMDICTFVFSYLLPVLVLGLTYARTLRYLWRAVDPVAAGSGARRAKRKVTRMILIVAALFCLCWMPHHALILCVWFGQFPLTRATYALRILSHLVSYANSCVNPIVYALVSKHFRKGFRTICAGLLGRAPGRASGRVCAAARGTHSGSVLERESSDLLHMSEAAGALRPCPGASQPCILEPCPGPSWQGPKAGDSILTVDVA
# RGS16-Gao – modulators of RGS16 binding to Galphao, primary screen, biochemical, human proteins, multiplexed bead flow cytometry; AID 1441, 2008; bead-based flow cytometry RGS16-Galphao binding, fluorescence; actives lie on both sides; 0.38% of 220,000 active; Regulator of G-protein signaling 16 (Homo sapiens) + Guanine nucleotide-binding protein …; binding response (% of control), % at 10 µM;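 active = below 25% or above 175%, edge rows of some plates excepted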;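 note: Galphao activated by GDP with aluminum fluoride before binding; 100% = wells without compound and 0% = beads without RGS; some results beyond the cut were filed as inactive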
# Target sequence (O15492 whole entry, looked up): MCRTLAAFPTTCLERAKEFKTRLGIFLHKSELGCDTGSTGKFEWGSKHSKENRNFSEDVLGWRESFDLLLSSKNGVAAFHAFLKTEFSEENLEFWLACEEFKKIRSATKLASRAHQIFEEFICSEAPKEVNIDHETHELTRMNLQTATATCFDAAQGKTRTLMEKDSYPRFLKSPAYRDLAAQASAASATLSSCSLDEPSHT
# Target sequence (P09471 whole entry, looked up): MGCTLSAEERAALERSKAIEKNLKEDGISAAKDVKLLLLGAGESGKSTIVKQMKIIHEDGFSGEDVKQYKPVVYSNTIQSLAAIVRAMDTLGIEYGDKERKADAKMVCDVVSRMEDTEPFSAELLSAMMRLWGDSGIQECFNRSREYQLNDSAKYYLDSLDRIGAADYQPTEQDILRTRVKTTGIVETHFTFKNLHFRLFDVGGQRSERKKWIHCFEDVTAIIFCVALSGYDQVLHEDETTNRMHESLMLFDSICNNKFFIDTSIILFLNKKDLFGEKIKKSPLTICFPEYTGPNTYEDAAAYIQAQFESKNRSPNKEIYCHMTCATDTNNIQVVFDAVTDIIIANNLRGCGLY
# Insulin prom inh – inhibitors of insulin promoter-driven GFP, primary screen, imaging, TRM-6 cells (human fetal islet line), eGFP reporter, cell count; inhibition, % at 2 µM; 0.9% of 130,000 active; reporter expression induced with tamoxifen;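 active = inhibition above the mean plus 3 SD, with well images judged a real hit on visual review, cut at about 60% in these data, passing the limit was not always enough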
# PKD1 kinase inh – inhibitors of human PKD1 kinase, biochemical, fluorescence polarization; Serine/threonine-protein kinase D1 (Homo sapiens), Q15139; PKD1 kinase fluorescence polarization assay; inhibition, %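 (about 10 µM by stock and volumes)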; 0.056% of 200,000 active;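 active = inhibition of 50% or more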;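 note: controls were vehicle for no effect and a reference inhibitor for full effect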
# Insulin prom inh cell count – second read-out of Insulin prom inh, no call of its own (marks repeat the call); normalized cell count, %; measured here: cell count, toxicity; reference of the scale not given here;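 cells exposed to compound for 48 h; stained nuclei by imaging scaled within each plate; lower means fewer cells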
# HSV replic up primary fold – second read-out of HSV replic up, no call of its own (marks repeat the call); fold increase; compound at 10 µM; measured here: primary screen fold increase 10 uM; tested in PC3 cells;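 GFP signal in the first replicate; 1 = infected wells without compound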
# The depositor's hits bear a star; i = inactive; x = no result given.
SMILES,HSV replic up,HSV replic up primary fold,GALR2 ag,RGS16-Gao,Insulin prom inh,Insulin prom inh cell count,PKD1 kinase inh
COc1cccc(Nc2ncnc3ccccc23)c1,i,0.85,-1.2,101,-3,192,10
O=C(c1cc(-c2ccc3c(c2)OCO3)on1)N1CCN(c2ccccc2)CC1,i,1.1,-3.4,102,x,x,-5
O=C1[C@@H]2[C@@H]3C[C@@H]([C@H]4ON=C(c5ccc(Cl)cc5)[C@@H]34)[C@@H]2C(=O)N1C1CCCCC1,i,0.81,0.0,102,-19,95,0
Cc1cnc2ncc3sccc3c2c1,i,0.91,-0.6,98,-27,111,1
O=C(NNS(=O)(=O)c1ccc(Cl)cc1)c1cc(-c2ccccc2)nc2ccccc12,i,0.91,-0.1,101,7,138,-1
CS(=O)(=O)N1CCC(C(=O)Nc2cc(Cl)ccc2Cl)CC1,i,0.89,x,81,47,118,6
Cc1cccc(C)c1NC(=O)C(c1ccccc1)N1CC(=O)Nc2ccccc21 (centres undefined),x,x,0.5,45,-56,70,-2
Cc1nn(-c2ccccc2)c2sc(C(=O)OCc3nnc(-c4ccccc4)o3)cc12,i,0.99,-0.5,103,-27,143,-4
Cc1cccc(N2CC(C(=O)Nc3ccc4c(c3)OCO4)CC2=O)c1C (centres undefined),i,0.92,1.2,97,28,111,-5
CCS(=O)(=O)NCc1cn2ccsc2n1,i,0.95,-0.7,98,x,x,7
COc1cc(C2=NOC(C(=O)Nc3ccc(C)cc3)C2)cc(OC)c1OC (centres undefined),i,0.95,-1.6,99,x,x,-6
C=C(C)Cn1c(SCC(=O)O)nnc1-c1ccccc1,i,0.88,-1.7,117,-3,77,0
Cc1cc(C)c2[nH]c(=O)c(CN(CC3CCCO3)C(=S)Nc3ccccc3)cc2c1 (centres undefined),i,0.91,-0.8,172,x,x,8
CC(C)COc1ccc(C(=O)Nc2ccc(SC(F)F)cc2)cc1,i,0.87,-0.1,80,-19,193,-10
Cc1ccc(OCCOC(=O)Nc2ccccc2)cc1,i,0.99,-2.1,100,-38,103,1
C/C(=N/NC(=O)c1cccs1)c1ccc(N2CCOCC2)cc1,i,0.91,0.1,103,-33,136,7
O=C(Nc1ccc(SC(F)F)cc1)c1ccccc1F,i,1,x,100,x,x,12
CCOC(=O)c1sc(-c2ccccc2)nc1C,i,0.87,x,99,x,x,-9
Cc1cc(C)n2nc(N)c(N=Nc3cccc(Cl)c3)c2n1,i,0.95,0.3,96,62*,176*,-2
CC(C)CCNC(=O)Cc1c(C(=O)O)[nH]c2ccc(Cl)cc12,i,1.1,-2.1,106,-278,84,-5
COc1c2ccc(C(=O)NCc3cc(C(F)(F)F)cc(C(F)(F)F)c3)cc2nn1C,i,0.98,-0.1,101,7,95,-5
COC(=O)c1[nH]c2ccc(C)cc2c1NC(=O)c1ccccc1[N+](=O)[O-],i,0.86,0.9,101,9,116,-20
COCCn1nnnc1C(C(C)C)N1CCC(Cc2ccccc2)CC1 (centres undefined),i,0.82,-3.4,151,6,51,-1
O=C(Cn1nc(-c2ccccc2)ccc1=O)N1CCOCC1,i,0.95,-2.2,x,x,x,-4
COc1ccccc1C1=Nn2c(nnc2C2CCCCC2)SC1,i,0.95,1.4,96,21,114,-8

# Brought forward from above: 2 entries, then new ones.
SMILES,HSV replic up,HSV replic up primary fold,GALR2 ag,RGS16-Gao,Insulin prom inh,Insulin prom inh cell count,PKD1 kinase inh
O=C(Cn1nc(-c2ccccc2)ccc1=O)N1CCOCC1,i,0.95,-2.2,x,x,x,-4
COc1ccccc1C1=Nn2c(nnc2C2CCCCC2)SC1,i,0.95,1.4,96,21,114,-8
CCOc1cc(CNCCSc2nnnn2C)cc(Br)c1OCc1ccccc1F,i,0.92,-0.7,102,x,x,-3
COc1ccc(C(=O)NNC(=O)c2ccc(C)cc2)cc1S(=O)(=O)N1CCCC1,i,0.94,x,103,x,x,-5
CCOC(=O)CN(C(=O)Cn1nnc2ccccc21)C(C(=O)NCCOC)c1ccccc1 (centres undefined),i,0.96,-1.6,110,-3,91,-17
COc1cc(/C=C(\C#N)c2ccccn2)ccc1OCC(=O)Nc1cccc(C(F)(F)F)c1,i,0.88,-1.2,104,-280,81,-7
CCc1cccc(C)c1NC(=O)CN(C)Cc1ccc(Br)cc1,i,0.96,x,103,x,x,6
Cc1cc(=O)oc2cc(N3C(=O)CC(Cc4ccccc4)C3=O)ccc12 (centres undefined),i,0.99,x,26,14,56,-6
O=C(O)COc1ccc(Oc2ccccc2)cc1,i,1,-1.0,105,-42,121,-1
Cc1c(CCOC(=O)c2cc([N+](=O)[O-])cc([N+](=O)[O-])c2)sc[n+]1CCCCS(=O)(=O)[O-],i,1,x,99,x,x,1
O=C(NC1CCCC1)C(c1ccc(Cl)cc1)N1CCOCC1 (centres undefined),i,0.87,-0.1,114,-14,55,7
Cc1nn(CCC(N)=S)c2nc(-c3cccs3)cc(C(F)(F)F)c12,i,0.81,2.0,74,10,105,15
O=C(CCN1CCN(CCO)CC1)Nc1ccc(F)c(F)c1,i,1,-1.2,106,x,x,4
O=C(O)C(=O)/C(=C\c1ccc(Cl)cc1)c1ccc2ccccc2n1,i,1.2,x,97,x,x,-1
C/C(N)=C(/C#N)C(=O)COC(=O)CC1CCCC1,i,0.98,-3.5,x,-38,83,-3
Cc1ccccc1/C=C1\CCCc2ccccc2C1=O,i,1,-0.5,111,5,125,-11
Cc1ccc(/C=C/C(=O)Nc2sc3c(c2C#N)CCCC3)o1,i,1.1,5.7*,100,x,x,-14
O=C1CC(N2CCC(c3nc4ccccc4o3)CC2)C(=O)N1 (centres undefined),i,0.88,x,102,x,x,2
COc1ccc(Br)cc1C(=O)Nc1cc(C)cc(C)c1,i,1.1,-0.9,104,23,122,-4
O=C(CCN1C(=O)C2C3C=CC(C3)C2C1=O)Nc1ccccc1 (centres undefined),i,1,x,104,x,x,-1
CCOC(=O)N1CCC(NC(=O)c2ccc3c(c2)ncn3C2CCCC2)CC1,x,x,-1.9,101,31,65,-15
CCN(C(=O)COC(=O)c1ccc(Cl)cc1N)C1CCCCC1,i,0.98,x,99,x,x,0
NNC(=O)CN1C(c2ccc(Cl)cc2)=Nc2ccc(Br)cc2C1c1ccccc1 (centres undefined),i,1,-2.9,104,x,x,-10
Cc1ccc(NCc2nnc(SCC(=O)NCCc3ccccc3)n2C)cc1,i,0.9,-1.4,101,x,x,0
CCn1cc(C(=O)OCC(=O)Nc2cccc(S(=O)(=O)N3CCOCC3)c2)c(=O)c2ccc(C)nc21,i,1.1,-0.7,101,34,119,1
Cc1cc(NC(=O)CSc2nc3c(c(=O)n2-c2ccc(Cl)cc2)SCC3)no1,i,0.94,1.4,x,-6,122,-8
Fc1ccc(OCc2nc(-c3ccncc3)n[nH]2)cc1,i,0.92,x,95,30,68,-2

# Copied from the list:
# In RGS16-Gao, O=C(CCN1CCN(CCO)CC1)Nc1ccc(F)c(F)c1 shows 106
# In HSV replic up primary fold, CCn1cc(C(=O)OCC(=O)Nc2cccc(S(=O)(=O)N3CCOCC3)c2)c(=O)c2ccc(C)nc21 shows 1.1

# The results go on:
SMILES,HSV replic up,HSV replic up primary fold,GALR2 ag,RGS16-Gao,Insulin prom inh,Insulin prom inh cell count,PKD1 kinase inh
N=c1ccn(Cc2ccccc2Cl)cc1,i,1.1,-2.4,93,27,132,-8
O=C(c1ccc(Cl)cc1[N+](=O)[O-])N1CCOCC1,i,0.96,x,99,50,100,-1
O=C(Nc1ccc(S(=O)(=O)Nc2nccs2)cc1)C1CC(=O)N(c2ccccc2)C1 (centres undefined),i,0.96,x,101,x,x,-4
C=CCNC(=O)C1COc2ccccc2O1 (centres undefined),i,1.2,x,100,x,x,x
Cc1cc(NC(=O)CSc2nccn2C)no1,i,1.1,x,100,24,141,-3
O=C(CSc1nc2c(cnn2-c2ccccc2)c(=O)[nH]1)c1ccc(Cl)cc1,i,0.97,-2.0,111,-8,61,-7
Cc1cc(N2CCN(C(=O)c3ccco3)CC2)n2nc(C)nc2n1,x,x,-0.2,107,35,122,-1
Cc1cc(Cl)n2ncc(-c3ccccc3)c2n1,i,1.1,x,98,x,x,x
CCn1c2ccccc2c2cc(NC(=O)c3ccccc3-c3ccccc3C(=O)O)ccc21,i,0.96,x,100,x,x,x
O=C1CC(Cc2ccccc2)C(=O)N1CCc1ccc2c(c1)OCO2 (centres undefined),i,1,-0.7,100,-26,103,2
CCn1c(SCC(=O)O)nnc1-c1ccccc1OC,i,0.88,x,101,x,x,-1
CC1(OC(=O)CCc2ccccc2)C(=O)C=C2C=C(c3ccc(C#N)cc3)N(c3ccccc3)C=C2C1=O (centres undefined),i,0.82,x,97,x,x,x
O=C(Cn1nnc(-c2cccs2)n1)OC1CCCCC1,i,0.98,-1.9,108,42,111,-2
O=C(NNC(=O)c1ccc(SCC2CCCO2)c([N+](=O)[O-])c1)c1ccc(F)cc1 (centres undefined),i,1.1,0.6,108,26,86,-2
CCOc1cc(-c2ccc(N)c(OCC)c2)ccc1N,i,0.94,-0.8,97,47,142,-3
COc1ccccc1N(CC(=O)NCC1CCCO1)C(=O)CNS(=O)(=O)c1ccc(Cl)cc1 (centres undefined),i,1,x,100,x,x,x
Cc1ccc(-c2noc(CCC(=O)Nc3ccc4c(c3)OCO4)n2)cc1,i,0.82,-2.0,101,12,179,-13
O=C(CN1C(=O)c2ccccc2S1(=O)=O)Nc1ccc(S(=O)(=O)N2CCCCC2)cc1,i,0.95,0.1,101,-21,96,3
O=C(CCc1nnc(CCCCc2ccccc2)o1)NC(c1cccnc1)C(F)(F)F (centres undefined),i,1.1,x,102,x,x,5
O=C(N/N=C/c1cccs1)c1ccc(NC(=O)c2ccccc2Cl)cc1,i,0.95,-0.7,99,x,x,-5
COc1cc(OC)c(OC)cc1C#N,i,0.96,x,101,x,x,-5
Cc1ccccc1CC1(CO)CCCN(C(=O)c2ccc3ncccc3c2)C1 (centres undefined),i,0.99,x,91,-228,83,4
CCc1nnc(NC(=O)CN2CCN(C3CCCCC3)CC2)s1,i,0.78,-1.6,102,17,59,-6
COC(=O)C(O)(NC(=O)c1ccncc1)C(F)(F)F (centres undefined),i,0.99,x,99,x,x,x
CCOC(=O)C(=O)Nc1ccc(OC)c(Cl)c1,i,0.98,x,96,x,x,-1

# Full records, looked up by structure. Order of values: HSV replic up	HSV replic up primary fold	GALR2 ag	RGS16-Gao	Insulin prom inh	Insulin prom inh cell count	PKD1 kinase inh
# Entry for O=C(CSc1nc2c(cnn2-c2ccccc2)c(=O)[nH]1)c1ccc(Cl)cc1 → i	0.97	-2.0	111	-8	61	-7
# Entry for Cc1cc(NC(=O)CSc2nccn2C)no1 → i	1.1	x	100	24	141	-3
# Entry for COc1cc(OC)c(OC)cc1C#N → i	0.96	x	101	x	x	-5
# Entry for CC1(OC(=O)CCc2ccccc2)C(=O)C=C2C=C(c3ccc(C#N)cc3)N(c3ccccc3)C=C2C1=O (centres undefined) → i	0.82	x	97	x	x	x
# Entry for Cc1cc(N2CCN(C(=O)c3ccco3)CC2)n2nc(C)nc2n1 → x	x	-0.2	107	35	122	-1

# (more compounds)
SMILES,HSV replic up,HSV replic up primary fold,GALR2 ag,RGS16-Gao,Insulin prom inh,Insulin prom inh cell count,PKD1 kinase inh
CCCCc1nc(NCC2CCCO2)c(C#N)c2c1COC(C)(C)C2 (centres undefined),i,0.94,-2.5,103,24,110,-4
CNC(=S)NC1(C)CCS(=O)(=O)C1 (centres undefined),i,1,x,106,x,x,x
CS(=O)c1ccccc1COC(=O)Nc1ccc(Cl)cc1 (centres undefined),i,1,-0.2,106,-36,106,2
CCC(=O)Nc1cccc(NC(=O)c2cccnc2)c1,i,1,-0.7,105,x,x,-3
Cn1c(CNC(=O)Nc2cccc(Cl)c2)nnc1SCc1ccccc1,i,0.98,-2.0,100,x,x,13
COC(=O)N1N=C(c2ccccc2)CC1(O)C(F)(F)F (centres undefined),i,0.92,-1.1,183,3,155,6
CC(=O)Nc1ccc(Sc2ncccc2C(=O)Nc2ccc(F)cc2)cn1,i,1,1.3,107,x,x,4
COc1cc2c(cc1OC)-c1cc(Nc3ccccc3)nc(=O)n1CC2,i,0.9,x,101,x,x,x
NC(=O)CN1C(=O)C(O)(CC(=O)/C=C\C=C\c2ccccc2)c2ccccc21 (centres undefined),i,0.92,-2.7,85,22,127,0
CCOC(=O)c1cnc(-c2ccc(C(F)(F)F)cn2)[nH]c1=O,i,1,x,104,x,x,x
COc1cccc(C(=O)Nc2c(C(N)=O)oc3ccccc23)c1,i,0.75,0.3,53,x,x,-9
COc1ccc(-c2cc(C(=O)Nc3cc(C)nn3-c3ccccc3)no2)cc1OC,i,0.74,x,100,x,x,-7
